# Screening data: PubChem BioAssay, National Center for Advancing Translational Sciences (NCATS)
# Vaccinia mCherry: vaccinia inhibition (mCherry reporter); Potency, µM (series often up to 36.5 µM), inactives show at the top dose activity change, negative = inhibition, hits mostly inhibitors; 0.63% of 310,000 active; Vaccinia virus mCherry reporter infection, fluorescence; about a quarter of the inactives have no number; active = well fitted inhibition curve with a large enough effect; inconclusive = small, poorly fitted or top-dose-only effect; inactive = no such curve, though single readings can be large or run the other way; tested in A549 cells; further: nearly all actives have a fitted effect of over 35% in size; inactives centre near -10
# VACV Venus inh: inhibitors of vaccinia virus (Venus reporter); Potency, µM (series often up to 36.5 µM), without a hit: top-dose activity change, negative = inhibition, most hits filed as inhibitors; AID 720580; 0.46% of 330,000 active; Vaccinia virus Venus reporter expression, fluorescence; active means well fitted inhibition curve with a large enough effect; inconclusive means small, poorly fitted or top-dose-only effect; inactive means no such curve, though single readings can be large or run the other way; tested in A549 cells; further: nearly all actives have a fitted effect of over 30% in size; inactives centre near -10
# Numbers without * were called inactive; i = inactive; ? = inconclusive; / = not tested or not shown; & = joins results of further samples; [ ] = another dose, or the depositor's remark. On the % scale 0 is the no-effect control and ±100 the full control effect; potency means the concentration at half of the fitted maximal effect.
# Value order – Vaccinia mCherry	VACV Venus inh
COc1ccc(CNC(=O)CCS(=O)(=O)c2cc3c4c(c2)CCN4C(=O)CC3)cc1
  -8%	0%
CC1CCCCC12NC(=O)N(CC(=O)OCC(=O)c1ccc(OC(F)F)cc1OC(F)F)C2=O (stereo not drawn)
  -18%	-13%
COC(=O)c1cc2n(n1)CCN(Cc1ccccc1Cl)C2=O
  i	0%
CCN(CC)c1ccc(/C=C/c2ccnc3ccccc23)cc1
  21%	46%[activator]
N#Cc1nc(-c2ccc(F)cc2)oc1NCc1ccccc1
  ?	-21%
CCCCOc1cccc(C(=O)N(Cc2cccs2)c2ccc(OC)cc2)c1
  -25%	-26%
O=C(NCCN1CCNC1=O)c1ccc2sc([C@H]3C[C@H](O)[C@@H](CO)O3)nc2c1
  12%	9%
O=c1[nH]c(=O)n(CCC2=CCCCC2)c(O)c1C=NCCN1CCNCC1
  -14%	5%
Cc1cccc(-c2ocnc2C(=O)N2CCN(C(=O)c3cccs3)CC2)c1
  -11%	-5%
O=C(C[n+]1ccc(C(=O)NCc2ccccc2)cc1)c1ccc(OC(F)F)cc1
  i	-3%
CC(C)(Cc1ccccc1)/[N+]([O-])=C\c1ccc(C(F)(F)F)cc1
  -27%	-19%
COc1ccc(C(=O)N(CCc2ccccc2)Cc2ccccc2)c(OC)n1
  -20%	4%
Cc1csc(NC(C)c2nc3cc(C(F)(F)F)ccc3n2CCOCCO)n1 (stereo not drawn)
  i	-13%
CCOC(=O)C1CCN(S(=O)(=O)c2ccc(C(C)(C)C)cc2)CC1
  i	1%
O=C(NCc1ccco1)NC1CCCCC1
  /	-26%
O=C1CS/C(=N/N=C/c2ccccc2)N1c1ccc(O)cc1
  -2%	2%
CC1CCN(c2nc(-c3ccc(C(C)(C)C)cc3)nc3ccccc23)CC1
  -12%	-11%
Cc1nc(-c2cccnc2)sc1CCNS(=O)(=O)c1ccc(F)cc1
  -10%	4%
Cc1ccc(C(=O)COC(=O)c2ccncc2)cc1[N+](=O)[O-]
  -10%	-1%
O=c1cc(CSc2ccccc2)nc(-c2ccncc2)[nH]1
  i	-10%
COc1nc(NCc2ccc(Cl)cc2)nc(OC)n1
  -10%	-20%
CC1C2CC(CC1(C)C)N(C(=O)Nc1ccc3nccnc3c1)C2 (stereo not drawn)
  -14%	-18%
CCCCCCCCN1C(=O)[C@H](CC(=O)NCCC(C)C)C[C@@]2(C(=O)OC)CCCCC=C12
  -4%	-6%
COc1cc(-c2cccc(OC)c2OC)cc2c1OCCN(Cc1cn[nH]c1-c1ccc(Cl)cc1)C2
  -9%	-26%
O=C(C=Cc1ccco1)N1CCOCC1
  i	4%
CCc1nc(SCc2cc(=O)[nH]c3ccccc23)c2c(C)c(C)sc2n1
  i	-13%
O=C(NC1CCN(Cc2ccccc2)CC1)c1ccc(I)cc1
  i	-19%
COc1ccc(CCNC(=O)COC(=O)Cc2ccccc2[N+](=O)[O-])cc1
  i	-4%
CCOc1cc(N2CCOCC2)c(OCC)cc1NC(=S)NCCCOC
  -3%	2%
O=C(CCN1C(=O)C2C3CCC(C3)C2C1=O)Nc1ccc(Cl)cc1Cl (stereo not drawn)
  -15%	-29%

# Full records, quoted from the list. Values in the order: Vaccinia mCherry, VACV Venus inh
# COc1ccc(C(=O)N(CCc2ccccc2)Cc2ccccc2)c(OC)n1 as listed: -20%, 4%
# Cc1ccc(C(=O)COC(=O)c2ccncc2)cc1[N+](=O)[O-] as listed: -10%, -1%
# O=c1cc(CSc2ccccc2)nc(-c2ccncc2)[nH]1 as listed: i, -10%
# COC(=O)c1cc2n(n1)CCN(Cc1ccccc1Cl)C2=O as listed: i, 0%
# COc1ccc(CNC(=O)CCS(=O)(=O)c2cc3c4c(c2)CCN4C(=O)CC3)cc1 as listed: -8%, 0%

# Later entries.
# Value order – Vaccinia mCherry	VACV Venus inh
O=C(Oc1c(Cl)cc(Cl)c2cccnc12)c1cccc([N+](=O)[O-])c1
  ?	?
Cc1ccc(NS(=O)(=O)c2ccc(Cl)c(C(=O)O)c2)cc1S(=O)(=O)N1CCOCC1
  -4%	-7%
Cc1ccc(-n2c(O)c(C=NCCN(C)C)c(=O)[nH]c2=O)cc1
  -2%	-4%
Nc1nc(NCC(=O)O)nc(N2CCCCCC2)c1[N+](=O)[O-]
  -16%	-16%
CC(C)(C)OC(=O)NCc1ccc(NC(=O)c2nc[nH]c2C(=O)N[C@@H](Cc2ccccc2)C(=O)OCc2ccccc2)cc1
  -28%	-10%
S=c1[nH]nc(-c2cccnc2)n1/N=C/C=C/c1ccco1
  i	-3%
CC(C)[C@H](NC(=O)N1CC(=O)Nc2ccccc21)C(=O)N[C@@H](Cc1ccccc1)C(=O)O
  -7%	10%
COc1ccc(C(=O)Nc2ccccc2C(=O)NC(Cc2ccc(O)cc2)C(=O)NNC(=O)c2ccccc2)cc1 (stereo not drawn)
  -2%	-15%
CN(C)S(=O)(=O)c1ccc(C(=O)N2CCN(C(=O)C3CCCO3)CC2)cc1 (stereo not drawn)
  -14%	9%
COC(=O)C(C)(C)ONC(=O)Nc1ccc([N+](=O)[O-])cc1
  i	-7%
COc1ccc2ccccc2c1C=NN1CCCCC1
  -14%	-14%
CCOC(=O)CSc1nc2cc3c(cc2cc1CC)OCCO3
  -2%	-6%
COCCN1C[C@@H](CO)O[C@@H](n2cnc3c(NC4CC4)ncnc32)C1
  13%	-4%
CC(C)(C)C1CCc2c(sc(NC(=O)C3c4ccccc4Oc4ccccc43)c2C(N)=O)C1 (stereo not drawn)
  -18%	-14%
CC1CC(C)CN(S(=O)(=O)c2ccc3c(c2)oc(=O)n3CC(=O)N(C)Cc2ccccc2)C1 (stereo not drawn)
  ?	?
COc1cccc(C(=O)N2CCC[C@H]2C(=O)N2CCC[C@H]2C(=O)N[C@@H](C)c2ccccc2)c1
  39%[activator]	-1%
CC(C)(C)c1ccc(OCC(O)CNC(=O)c2ccccc2C(=O)O)cc1 (stereo not drawn)
  -20%	-9%
CN(C)CCCNC(=O)Cc1ccc(Br)cc1
  i	-6%
COc1ccc(S(=O)(=O)Nc2c(C)cccc2C)cc1-n1cnnn1
  -26%	2%
O=C(Nc1ccc(Cl)c([N+](=O)[O-])c1)C(Sc1ccccc1)c1ccccc1 (stereo not drawn)
  -20%	?
CCOc1ccc(CCNC(=O)COC(=O)c2c(OC)cccc2OC)cc1OCC
  -10%	-9%
NC(=O)C1c2ccccc2Oc2ccccc21
  i	3%
O=C(CN1CCN(c2ccccc2)CC1)Nc1nnc(-c2ccccc2)s1
  -3%	4%
CC(C)CCn1c(Sc2nc3ccccc3o2)nc2c1c(=O)[nH]c(=O)n2C
  ?	?
CCOc1ccc(CNC(=O)c2cc3cc(S(=O)(=O)N4CCCCC4)ccc3n2C)cc1
  -27%	-27%
Cc1cccc(Cn2c(NC3CCCC3)nc3c2c(=O)[nH]c(=O)n3C)c1
  -20%	-19%
O=C(O/N=C\c1ccc(N2CCCCC2)c([N+](=O)[O-])c1)c1ccc(Cl)cc1Cl
  i	-9%
CCCCn1nc(C(=O)NNC(=O)c2ccncc2)c2ccccc2c1=O
  -6%	5%
CCOC(=O)CNC(=O)CCCCCC(=O)NCC(=O)OCC
  /	-3%
O=C(Cc1cn(Cc2cccc(Cl)c2)c2ccccc12)N1CCCCCC1
  -3%	-11%
CCCSc1nc2c(c(=O)n1CC)SC(C)C2 (stereo not drawn)
  i	-14%
COc1ccc(C(=O)N2CCC(C(=O)O)CC2)cc1
  -12%	-6%
C=CCN(CC=C)S(=O)(=O)c1ccc(NC(=S)NC(=O)c2ccco2)cc1
  /	?
COc1cc(F)ccc1-c1csc(C(O)(c2ccccc2)C(F)(F)F)n1 (stereo not drawn)
  i	-13%
Cc1cccc(OCC(=O)NCC(=O)N/N=C/c2cccs2)c1
  -5%	-2%
CSc1nc2ccccc2n1Cc1cccc(F)c1
  /	-12%
CCOC(=O)c1cccc(NC(=O)CSc2nnc(-c3ccoc3C)n2CC)c1
  -8%	-16%
CCCN1CCN(CCCNC(=O)c2cc3c(=O)[nH]c4ccccc4c3s2)CC1
  -5%&-15%	-13%&-7%
CCC1CCCCN1CCCNC(=O)CC1Oc2ccc(C)cc2NC1=O (stereo not drawn)
  -4%	0%
COC(=O)Cn1c(CCC(=O)O)ccc1-c1ccccc1
  9%	1%
Cc1cccc(NC(=O)C2CCN(S(=O)(=O)c3ccc4ccccc4c3)CC2)n1
  -27%	-13%
COc1ccc(C(=O)N2CCN=C2SC)cc1
  i	-8%
COc1cc(/C=C(\C#N)c2nc3ccccc3[nH]2)ccc1OCc1cccc(C(F)(F)F)c1
  -29%	?
Cc1cccc(NC2SC(=O)N(c3ccccc3)C2=O)c1 (stereo not drawn)
  -15%	-5%
COc1ccc(Nc2c3c(nc4ccc(NC(=O)c5ccc(F)cc5)cc24)CCCC3)cc1OC
  -16%	-21%
c1cc(CNCC2CCCO2)ccn1 (stereo not drawn)
  -2%	-3%
COc1c2ccoc2c(OC[C@@H](O)C(C)(C)O)c2oc(=O)ccc12
  i	0%
Cn1cncc1C#Cc1ccc2c(=O)c3ccccc3oc2c1
  ?	?
CCOCCOC(=O)c1ccc(NC(=O)c2cc3ccccc3o2)cc1
  -5%	-7%
Cc1ccc(C(=O)/C=C/C(=O)O)cc1
  -7%	-16%
N=c1c2c(-c3ccccc3)c(-c3ccccc3)n(Cc3ccccc3)c2ncn1CCO
  ?	?
CC(C)c1ccc(/C=N/NC(=O)c2ccc(-n3cnnn3)cc2)cc1
  -1%	-2%
COc1ccc(N2C(=O)CSC23C(=O)N(CC(=O)NCc2ccccc2)c2ccccc23)cc1 (stereo not drawn)
  -7%	-7%
OCCC1CN(Cc2cc3c(cc2Cl)OCO3)CCN1Cc1ccccc1 (stereo not drawn)
  -15%	-6%
COc1ccc([C@H]2C[C@H](n3cc(COC(=O)c4ccccc4)nn3)[C@@H](O)CN2CC2CCCCC2)cc1
  -15%	-23%
CCN1CCOC(=O)C1CC(=O)Nc1ccccc1C(F)(F)F (stereo not drawn)
  i	0%
Cc1c(C(=O)Nc2ccc(-c3nnc4n3CCCCC4)cc2)oc2ccc(Br)cc12
  -4%	-17%
COCCNC(=O)C1(C)CCCN(C(=O)c2cc(C)on2)C1 (stereo not drawn)
  15%	4%
O=C(COC(=O)c1cc(Br)ccc1O)Nc1cc(S(=O)(=O)N2CCCC2)ccc1Cl
  -7%	-13%
COc1ccc(-c2c(C#Cc3ccsc3)c3cc(-c4ccc5[nH]ccc5c4)ccc3n2C)cc1
  -5%	-9%

# A draw from above in order of number of heavy atoms, ascending:
# Value order – Vaccinia mCherry	VACV Venus inh
Cc1ccc(C(=O)/C=C/C(=O)O)cc1
  -7%	-16%
CCCSc1nc2c(c(=O)n1CC)SC(C)C2 (stereo not drawn)
  i	-14%
Cn1cncc1C#Cc1ccc2c(=O)c3ccccc3oc2c1
  ?	?
C=CCN(CC=C)S(=O)(=O)c1ccc(NC(=S)NC(=O)c2ccco2)cc1
  /	?
Cc1c(C(=O)Nc2ccc(-c3nnc4n3CCCCC4)cc2)oc2ccc(Br)cc12
  -4%	-17%
COc1cc(/C=C(\C#N)c2nc3ccccc3[nH]2)ccc1OCc1cccc(C(F)(F)F)c1
  -29%	?

# Continued.
# Value order – Vaccinia mCherry	VACV Venus inh
COc1ccc(N2CCN(C(=O)COc3ccc(S(=O)(=O)N4CCOCC4)cc3C)CC2)cc1
  -7%	-8%
CCOC(=O)CSc1nc2nc(Cl)c(Cl)nc2[nH]1
  i	1%
NC(=O)c1ccc(NC(=O)COC(=O)CCN2C(=O)c3ccccc3C2=O)cc1
  -10%	-4%
COCCNC(=O)C1=NOC(Cn2cc(C#N)c(=O)n(C)c2=O)C1 (stereo not drawn)
  -2%	-8%
O=C(CN1c2ccccc2Sc2ccccc21)NNC(=O)Nc1ccc(Cl)c(Cl)c1
  0%	5%
CCOC(=O)c1ccc2ncc3c(-c4ccccc4)nn(-c4ccc(F)c(Cl)c4)c3c2c1
  -13%	-2%
O=C(CCCC(=O)OCC(Cl)=C(Cl)Cl)Nc1ccccc1F
  -14%	0%
CCOc1ccc(C(=O)Nc2cccc3nsnc23)cc1[N+](=O)[O-]
  i	7%
O=C1NC[C@H](Cc2ccc(O)cc2)N(C[C@H]2CCCN2C[C@H](Cc2ccccc2)N2C[C@H](Cc3ccccc3)N(CCc3ccccc3)C(=O)C2=O)C1=O
  2%	-2%
Cc1ccc2c(=O)cc(C(=O)NCCc3ccc(S(N)(=O)=O)cc3)oc2c1C
  5%	-15%
CCN(C(=O)COC(=O)c1cccc(C)c1[N+](=O)[O-])c1c(N)n(Cc2ccccc2)c(=O)[nH]c1=O
  -3%	-20%
CC1=C(C(=O)Nc2cc(C)cc(C)c2)C2(CCCCC2)OC1=O
  -8%	-8%
CC1Cc2ccccc2N1S(=O)(=O)c1c(N)n(C)c(=O)n(C)c1=O (stereo not drawn)
  i	13%
Cc1ccc(C(=O)NCCCNc2ccc(C(F)(F)F)cc2[N+](=O)[O-])cc1
  -12%	-19%
COc1ccc(/C=N/N=C2/NC(=O)C(CC(=O)O)S2)cc1OS(=O)(=O)c1ccccc1 (stereo not drawn)
  -6%	-11%
